Screens as filed in PubChem.
Bead autofluor – flagged as autofluorescent in microsphere protease counterscreen; compound autofluorescence counterscreen, microsphere flow cytometry; active compounds read high; fluorescence intensity (no concentration beside the values); 360,000 tested, 3.1% active;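 active means at least 3 SD above the mean of all compounds, about 16000 in these data; inconclusive means too few beads counted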;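 further: 100 nL of 1 mM stock went into each well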
Mtb hypoxia rep – PubChem AID 1159583; 300,000 tested, 0.1% active; fluorescence inhibition, % (concentration not given with the values); M. tuberculosis hypoxia-regulated fluorescent reporter, fluorescence;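 active means 35 to 45% if threefold the growth effect, above 45% if 1.5-fold the growth effect; inactive means the rest, general growth blockers included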;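 further: wells of about 50 µL received 100 nL stock; 0% = vehicle wells and 100% = reference inhibitor wells; whole bacteria with a GFP reporter of the hypoxia response; strong numbers were not always called active; many hits fall short of the cut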
PrP UTR inh – inhibition of PrP 5' UTR reporter expression. 340,000 tested, 0.35% active. inhibition, % (no concentration beside the values). cell-based PrP 5' UTR mRNA reporter, plate reader;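 active means every replicate at 50% or more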;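 further: 0 = median of the neutral control wells; tested in H4 reporter cells; numbers are from one replicate; inactives centre near -14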
RN4220 kill – growth inhibition of S. aureus RN4220, primary screen, OD600; inhibition, % (no concentration beside the values); 16 h; 330,000 tested, 0.33% active; AID 1259311, 2017;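 active means z-score of -3 or lower and OD600 up to 0.18 on both plates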;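 further: plate controls were untreated cells for no effect and reference antibiotic for full effect; stock transfer was 100 nL into about 80 µL; one replicate is shown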
BJeLR viability – MLPCN primary cell-based screen for lethality selective to Ras in HRASV12 cells. BJeLR (HRASV12) viability, CellTiter-Glo ATP luminescence, 48 h; reference of the scale not given here. inhibition, % (no concentration beside the values). 300,000 tested, 0.17% active. AID 1554, 2009;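 active means replicate mean above 50%; inconclusive means above 50% but judged a plate artefact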;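 further: 50 nL library stock added to about 25 µL; numbers are from one replicate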
Sa ugtP lethal – growth inhibition of ugtP-null S. aureus, primary screen, RN4220 ugtP deletion, OD600 | 330,000 tested, 0.54% active | growth inhibition, % (test concentration not listed) | 16 h; some inactives read as strong as hits;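 active means z-score under -3 and OD600 up to 0.15 on both plates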;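 further: plate controls were untreated wells for no effect and antibiotic for full effect; wells of about 80 µL received 100 nL stock; the first replicate is given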
Mtb hypoxia rep growth – recorded beside Mtb hypoxia rep, whose call it bears; growth inhibition, %; measured here: M. tuberculosis growth (absorbance);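 0% = vehicle and 100% = reference antibiotic; read after six days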
An asterisk follows results filed as active; ? = inconclusive; · = not tested or not shown.

SMILES	Bead autofluor	Mtb hypoxia rep	Mtb hypoxia rep growth	PrP UTR inh	RN4220 kill	BJeLR viability	Sa ugtP lethal
O=C1NC(=S)N(c2ccc(F)cc2)C(=O)/C1=C/c1ccccc1O	3804	2	-2	-15	3.4	-2	4
COc1ccc(C2CC(=O)c3ccccc3O2)cc1 (configuration not stated)	3869	8	11	-51	8.8	-4	-6
O=c1[nH]ncc2c3ccccc3n(Cc3ccccc3F)c12	2824	2	2	-26	3.0	-11	-2
Cc1cccc(C=NNc2nncc3ccccc23)c1	·	-5	6	·	0.5	·	-6
Cc1ccc(CNC(=O)c2cc(COc3c(F)cccc3F)on2)s1	4213	5	6	-24	-5.2	-5	19
Cc1ccc(S(=O)(=O)N2CCC(C(=O)N[C@@H](C)C(=O)NCCc3ccccc3)CC2)cc1	9950	17	1	-21	1.2	·	0
Cc1cc(C)cc(OCC(=O)Nc2ccc(N3CCN(S(C)(=O)=O)CC3)cc2)c1	4262	21	13	-6	4.2	2	-3
O=C(O)c1ccc2c(c1)C1C=CCC1C(c1cc3c(cc1Br)OCO3)N2 (configuration not stated)	4706	-1	-3	-21	7.7	4	13
CN(CCCNC(=O)CCCOc1cc(=O)n(C)c2ccccc12)Cc1ccccc1	2395	-9	5	-17	5.3	1	6
COC(=O)[C@@H]1CCCN1C(=O)CCc1nnc(CCc2c[nH]c3ccccc23)o1	3942	12	2	-9	7.0	16	5
CC(C)Cc1nc(Nc2ccc(S(=O)(=O)N3CCCC3)cc2)c2nnn(Cc3ccccc3)c2n1	2278	13	5	-47	5.2	-1	7
COc1ccc(C(=O)N2CCN(c3ccc(NC(=O)Cc4ccccc4)cc3)CC2)cc1	5722	·	·	-14	·	-1	·
Cc1ccc(CNc2ccccc2C(=O)O)s1	·	10	1	-6	3.2	-6	3
COc1cccc(NC(=O)C(c2ccccc2)N2CCN(CC(=O)N3CCOCC3)CC2)c1 (configuration not stated)	3487	-2	3	-31	2.6	·	9
CCOc1ccccc1N(CC(=O)N1CCCCCC1)S(C)(=O)=O	8126	5	6	-2	4.6	-3	3
COCCCN1C(=O)c2[nH]nc(-c3ccccc3O)c2C1c1cccc(Cl)c1 (configuration not stated)	3597	18	13	-12	4.4	-5	3
O=C(NCCNC(=O)c1cc(OCC(F)(F)F)ccc1OCC(F)(F)F)Nc1ccccc1	6315	4	15	-4	-5.6	-3	-8
CC(CCc1ccccc1)NCC(O)COc1ccccc1 (configuration not stated)	4375	5	6	-17	5.6	-2	-3
O=C(NNC(=O)C1C2CCC(C2)C1C(=O)O)c1ccc(Cl)cc1 (configuration not stated)	3638	-2	-8	-26	3.4	-5	3
CC(=O)c1ccc(S(=O)(=O)Nc2ccccc2C(=O)NC2CC2)cc1	?	-4	2	-4	-0.9	·	-5
Cc1nn(CC(O)c2ccccc2)c(C)c1Br (configuration not stated)	21421*	15	10	-39	8.2	1	-14
CCOc1ccccc1C(=O)Nc1ccc2c(c1)C(=O)NC2=O	3744	15	-1	-28	-1.0	11	4
Cc1ccccc1-c1nc(CS(=O)(=O)CC(=O)NCc2ccccc2)c(C)o1	5612	2	6	-44	1.8	4	-9
Cc1nn(CC(=O)OCC(=O)c2ccccc2)c(C)c1[N+](=O)[O-]	3711	7	9	-6	-1.4	·	0
Cc1cc(C)c(C)c(S(=O)(=O)N2CCSCC2)c1C	3537	0	-5	-13	0.1	-9	-5
C[C@H]1CC[C@@H]2N(C1)C[C@H]1[C@@H]3C[C@H]4[C@@H](CC(=O)[C@H]5C[C@@H](O)CC[C@@]54C)[C@@H]3CC[C@H]1[C@]2(C)O	3278	-8	5	-3	3.4	9	8
CN(C)N=Nc1ccc(S(=O)(=O)NC(=O)Cc2ccccc2)cc1	·	11	2	-1	6.8	1	8
CCC(C)(C(=O)NC1CCCC1)N(CC1CCCO1)C(=O)CNC(=O)c1ccccc1 (configuration not stated)	3503	·	·	-13	3.6	-1	7
O=C(CSc1cccs1)NCCc1ccccc1	1923	2	2	1	2.2	4	4
COc1ccc(C(=O)C2CCN(CC(=O)NCc3ccccc3)CC2)cc1	3048	8	-6	-15	2.2	10	10

Pulled by structure from the list above (five):
SMILES	Bead autofluor	Mtb hypoxia rep	Mtb hypoxia rep growth	PrP UTR inh	RN4220 kill	BJeLR viability	Sa ugtP lethal
Cc1nn(CC(=O)OCC(=O)c2ccccc2)c(C)c1[N+](=O)[O-]	3711	7	9	-6	-1.4	·	0
Cc1cc(C)c(C)c(S(=O)(=O)N2CCSCC2)c1C	3537	0	-5	-13	0.1	-9	-5
Cc1ccccc1-c1nc(CS(=O)(=O)CC(=O)NCc2ccccc2)c(C)o1	5612	2	6	-44	1.8	4	-9
COc1ccc(C(=O)C2CCN(CC(=O)NCc3ccccc3)CC2)cc1	3048	8	-6	-15	2.2	10	10
CCC(C)(C(=O)NC1CCCC1)N(CC1CCCO1)C(=O)CNC(=O)c1ccccc1 (configuration not stated)	3503	·	·	-13	3.6	-1	7

Back to the main list, repeating the two entries before the break.
SMILES	Bead autofluor	Mtb hypoxia rep	Mtb hypoxia rep growth	PrP UTR inh	RN4220 kill	BJeLR viability	Sa ugtP lethal
O=C(CSc1cccs1)NCCc1ccccc1	1923	2	2	1	2.2	4	4
COc1ccc(C(=O)C2CCN(CC(=O)NCc3ccccc3)CC2)cc1	3048	8	-6	-15	2.2	10	10
CCOc1ccc(OCc2ccc(C(=O)NN=Cc3ccc[nH]3)cc2)cc1	4543	-4	-7	8	0.8	·	-2
CCC(C)[C@H](NC(=O)N1CCCC1)C(=O)OC (some centres not stated)	11959	4	1	-22	1.9	-3	4
Cc1cc(NN=Cc2ccc(O)cc2)nc(NS(=O)(=O)c2ccccc2)n1	·	4	-4	·	2.3	·	11
Cc1ccc(OCC(O)CN2CCC(Cc3ccccc3)CC2)c(C)c1 (configuration not stated)	5520	0	9	-15	-2.8	-1	-10
CC1CCC(C(C)C)C(OCC[N+](C)(C)C)C1 (configuration not stated)	7544	·	·	-36	·	5	·
Clc1ccc(Cn2cccc2C2=NCCO2)cc1	4579	·	·	1	2.1	-1	5
COc1ccc(C2C=CCN(S(=O)(=O)c3ccc(C)cc3)CC(=O)N2Cc2ccc(F)cc2)cc1 (configuration not stated)	·	0	-6	·	12	·	10
CCOc1cccc(N2C(=O)CC(n3cnc4ccccc43)C2=O)c1 (configuration not stated)	4753	9	8	-11	-2.2	-1	-2
CCCCNC(=S)N(CCN(CC)CC)Cc1cc2cc3c(cc2[nH]c1=O)OCCO3	6330	0	8	-18	-2.2	0	8
COc1ccc(Cl)cc1NC(=O)CN(C)C1CCCCC1	4385	4	15	-11	-5.0	-7	-6
Nc1c(C(=O)NC23CC4CC(CC(C4)C2)C3)sc2nc3c(c(C(F)(F)F)c12)CCC3	24363*	-9	13	-21	3.4	-2	-38
Cc1cc(C(=O)Nc2cccnc2)on1	5713	4	9	-18	0.3	-5	9
CC1(C)Cc2c(C#N)c(NCCN3CCOCC3)nc(-c3ccccc3)c2CO1	4706	12	0	-9	1.5	1	8
COc1ccc(N=C2C(=Nc3ccc(OC)cc3)N(c3ccc(OC)cc3)C(=S)N2C(=O)c2ccc(OC)cc2)cc1	9192	8	12	-24	4.5	-8	12
O=S(=O)(c1cccc(-c2nnco2)c1)N1CCOCC1	4471	-13	-2	-35	7.8	5	4
Cc1ccc(C)c(N2CCN(C(=S)NC3CCCCC3)CC2)c1	2144	5	6	-15	1.8	-2	2
CCN(CC)S(=O)(=O)c1ccc(C(=O)C(C#N)c2ccccn2)cc1 (configuration not stated)	10156	12	8	-11	2.7	5	1
COC(=O)c1ccc(CSc2nc(N3CCOCC3)c3c(c2C#N)CC(C)(C)OC3)o1	2598	·	·	-26	3.8	4	4
CCOc1cc(/C=C2/C(=N)N3C(=NC2=O)SN=C3S(C)(=O)=O)ccc1OC(=O)c1ccco1	4429	-3	-9	-12	-1.8	0	4
CCOC(=O)C1CCCN(C(=O)CNC(=O)Cn2ccc3ccccc3c2=O)C1 (configuration not stated)	8430	11	4	-5	3.2	·	3
CC(C)NC(=S)NC(=O)c1ccc(-c2ccccc2)cc1	2085	12	4	-22	28	-1	-19
Cc1cc(C(=O)NNC(=O)c2ccc(Cl)cc2Cl)c(C)o1	5501	3	1	-31	-0.6	-12	11
COCCN(C(=O)Cc1cccs1)c1nnc(-c2ccncc2)s1	3659	·	·	-14	2.7	-1	3
COc1cccc(N2CCN(C(=O)C3CCCN(S(=O)(=O)c4cnc[nH]4)C3)CC2)c1 (configuration not stated)	5225	·	·	7	4.5	1	6
CC(CN1CCCCCC1)C(=O)NN (configuration not stated)	4135	-2	7	-15	2.1	-6	13
Cc1oc(-c2ccc(Cl)cc2)nc1CS(=O)CC(=O)NCc1ccc2c(c1)OCO2 (configuration not stated)	6139	0	2	-1	-1.2	9	-7
O=C(CN1C(=O)c2cccc3cccc1c23)Nc1cccnc1	4658	·	·	-10	-0.1	0	5
CCOc1ccc(C(=O)OCCCN(C)C)cc1	2417	11	2	-19	2.0	5	11
COc1cccc(CN2C(=O)CCC2(C)C(=O)NC2CCCC2)c1 (configuration not stated)	3681	6	5	-25	6.0	-7	6
CCCC(=O)OC1CC(C)N(C(=O)c2ccccc2)c2ccc(C)cc21 (configuration not stated)	3289	24	5	-10	-11	-2	-9
CC(=O)N1CCC(N(CCN2CCOCC2)C(=S)Nc2ccc(C)cc2)CC1	4689	-3	6	-12	2.5	-1	2
O=C1NC(=Nc2ccccc2Br)SC1(CO)CO	3836	12	2	-21	7.2	-8	2
CC(C)n1c(=S)[nH]c2scc(-c3cccs3)c2c1=O	5229	9	-1	-2	52	-8	48
CCOc1ccc(NC(=O)c2ccccc2NC(=O)CN2CCN(C(C)=O)CC2)cc1	3971	7	4	-20	5.1	0	-3
O=c1c2ccccc2nc(SCc2ccc([N+](=O)[O-])cc2)n1CCCO	7387	-4	2	-8	1.5	4	4
Cc1ccc(-c2csc3ncnc(SCC(N)=O)c23)cc1	2571	3	4	4	2.6	3	20
O=C(CSC(=S)N1CCCC1)Nc1ncc(Cl)cc1Cl	4285	13	4	-9	32	1	5
CCN(C(C)=O)c1nc(CCl)cs1	4670	11	6	-34	5.3	7	-66
O=C(O)c1cccc(NC(=S)N/N=C/c2cccnc2)c1	2484	·	·	1	·	2	·
COc1cc(SC)ccc1C(=O)OCC(=O)NC(=O)NC(C)C	4101	6	7	-7	9.6	0	5
COc1ccc2c(c1)C(C)=CC(C)(C)N2C(=O)C(C)N1C(=O)c2ccccc2C1=O (configuration not stated)	9112	4	2	-24	7.2	-1	2
Nc1nn(-c2ccccc2)nc1C(=O)OCc1ccccc1	5245	-10	0	-17	0.7	5	7
O=C(CNC(c1ccccc1)c1ccccc1)Nc1c(F)cccc1F	2047	2	7	-41	-0.4	-12	24
N#CC1=C(N)OC2=C(C(=O)CC(c3ccccc3)C2)C1c1ccc2c(c1)OCO2 (configuration not stated)	2414	-3	18	-14	0.2	-4	0
Cc1cc(=O)[nH]c(N/N=C/c2ccc(-c3ccc([N+](=O)[O-])cc3)o2)n1	3607	·	·	-22	·	-2	·
COc1ccccc1C=NN=C(N)C(N)=NN=Cc1ccccc1OC	3695	14	8	-29	7.3	·	-10
CC1CN(CCOc2ccc(F)cc2)CC(C)O1 (configuration not stated)	3427	-2	17	-14	6.4	-5	10
Cc1ccc(OCC(=O)NN=Cc2ccc(O)cc2)c([N+](=O)[O-])c1	·	-1	0	·	4.4	·	-4
O=C(CCNC(=O)c1ccc(Br)cc1)Nc1nc2ccccc2[nH]1	6104	2	0	-35	-0.7	·	4
O=C(CN1CCN(c2ccccn2)CC1)Nc1cccc(S(=O)(=O)N2CCOCC2)c1	4402	14	-2	-12	6.3	-2	9
Next records.
SMILES	Bead autofluor	Mtb hypoxia rep	Mtb hypoxia rep growth	PrP UTR inh	RN4220 kill	BJeLR viability	Sa ugtP lethal
Cc1ccc(S(=O)(=O)N2CCOCC2)cc1NC(=O)CSc1nnnn1C	3814	14	5	-13	3.3	3	3
CSc1ccc(CCNC(=O)C2CCN(c3nnc(-n4cccc4)s3)CC2)cc1	4969	14	8	-20	2.5	-7	11
Cc1ccc(NC(=O)C2C3CCC(O3)C2C(=O)O)cc1Cl (configuration not stated)	3190	2	2	-17	3.5	8	5
Cc1n(Cc2ccccc2)c2ccccc2[n+]1Cc1ccccc1	3325	6	-6	-13	4.7	5	14
COc1ccc(NC(=O)C2CC2)cc1-n1cnnn1	6563	-85	-27	-27	-1.5	-8	-3
